High-throughput results from PubChem BioAssay.
A1 inh – caspase 3/7 activation in MEF A1-2A-BIM cells, primary screen, A1 inhibitor project, cell-based, luminescence, HTS; Caspase-Glo 3/7 luminescence, 3 h; percent of clofoctol response, vehicle zero; caspase activation, % (test concentration not listed); 0.066% of 330,000 active; AID 2462, 2010;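 active means over half of replicate activation scores above 10%, or exactly half above 10 with the replicate mean above 10; inconclusive means replicate mean below 10 yet half the replicates above 10; inactive means over half of replicates below 10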;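 further: wells of about 30 µL received 50 nL stock; many hits fall short of the cut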
B2AR ag – beta2AR agonists driving receptor internalization, primary screen, cell-based, FAP fluorogen, flow cytometry; Am2.2-beta2AR cells; reference of the scale not given here; 0.43% of 340,000 active; response, % (no concentration beside the values);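 active means response above a set limit, near 3 SD of response in nonfluorescent compounds, cut at about 42% in these data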;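 further: stock transfer was 100 nL into about 11 µL; a reference agonist was the positive control; negative values mostly stem from fluorescent compounds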
Vif TR-FRET – inhibitors of Vif binding to APOBEC3G peptide, primary screen, biochemical, TR-FRET, GST-Vif 1-94, biotin-A3G peptide, dose response retest (AID 1117319); Virion infectivity factor (Human immunodeficiency virus type 1 group M subtype B (isolate …; TR-FRET GST-Vif / biotin-A3G peptide binding; higher % means a stronger effect; test concentration not given here; strong numbers were not always called active; inhibition, %, or IC50 in µM where a hit was titrated; 0.57% of 260,000 active;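 active means above the screen mean plus three standard deviations and confirmed in dose response; inconclusive means results disagree or hit not tested in dose response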;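 further: Vif residues 1-94 fused to GST binding biotinylated APOBEC3G peptide 110-148; 0% = full assay without inhibitor and 100% = GST in place of GST-Vif; retest series ran down from 100 µM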
UCH37 inh – inhibitors of human UCH37 deubiquitinase, primary screen, biochemical, Ub-AMC cleavage, fluorescence; Ubiquitin carboxyl-terminal hydrolase isozyme L5 (Homo sapiens), Q9Y5K5; purified proteasome/UCH37; inhibition, % (concentration not given with the values); 0.33% of 330,000 active;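 active means mean of two replicates above 20%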;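 further: 0% = compound-free wells with enzyme and 100% = wells lacking proteasome; stock transfer was 100 nL into about 20 µL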
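Schedule: 30 min plus 25 min, room temperature / Material: human UCH37 within purified proteasomes / Technique: AMC fluorescence intensity at 355/460 nm / Buffer or medium: pH 7.4 Tris-HCl (50 mM) with ovalbumin, ATP-MgCl2, DTT / Controls: wells without proteasome as full block, compound-free enzyme plus substrate as uninhibited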
Ecoli growth – E. coli growth inhibition, primary screen, OD600; Escherichia coli growth, 23 h; stronger effect = lower value; OD600 absorbance (no concentration beside the values); 0.21% of 330,000 active;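 active means OD600 absorbance below the run mean of sample wells minus 3.6 SD, in any replicate, cut at about 0.56 in these data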;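 further: stock transfer was 300 nL into about 60 µL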
HNF4A DNA FP – change in binding of human HNF4A to DNA, primary screen, biochemical, fluorescence polarization, FITC-DNA; Hepatocyte nuclear factor 4-alpha (Homo sapiens), P41235; 0.3% of 360,000 active; activity change, % at 10 µM; 1 h; AID 1224865, 2016; in the data active means activity change above about 30%, passing the limit was not always enough;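 further: controls were the assay level and a saturating level of protein; the project sought stronger binding though the title names inhibitors; some compounds called inactive have numbers as strong as hits; positive values seem to mean higher polarization but the record does not say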
LANA-H2B inh – blockers of LANA interaction with H2A/H2B – biochemical, FP readout, HTS, primary screen; cell-free LANA-H2A/H2B peptide, fluorescence polarization; inhibition, % (no concentration beside the values); Protein LANA1 (Human herpesvirus 8 type P (isolate GK18)), Q9QR71; 0.6% of 320,000 active; in the data active means inhibition mostly above about 10%, no sharp cut-off; inactive means mostly below about 6.7%;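 further: stock transfer was 7.5 nL into about 10 µL; 0% = median of vehicle wells and 100% = median of positive control wells; one replicate is shown; the record names a cut of 25% in any replicate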
Target sequence (Q9QR71 whole entry, looked up): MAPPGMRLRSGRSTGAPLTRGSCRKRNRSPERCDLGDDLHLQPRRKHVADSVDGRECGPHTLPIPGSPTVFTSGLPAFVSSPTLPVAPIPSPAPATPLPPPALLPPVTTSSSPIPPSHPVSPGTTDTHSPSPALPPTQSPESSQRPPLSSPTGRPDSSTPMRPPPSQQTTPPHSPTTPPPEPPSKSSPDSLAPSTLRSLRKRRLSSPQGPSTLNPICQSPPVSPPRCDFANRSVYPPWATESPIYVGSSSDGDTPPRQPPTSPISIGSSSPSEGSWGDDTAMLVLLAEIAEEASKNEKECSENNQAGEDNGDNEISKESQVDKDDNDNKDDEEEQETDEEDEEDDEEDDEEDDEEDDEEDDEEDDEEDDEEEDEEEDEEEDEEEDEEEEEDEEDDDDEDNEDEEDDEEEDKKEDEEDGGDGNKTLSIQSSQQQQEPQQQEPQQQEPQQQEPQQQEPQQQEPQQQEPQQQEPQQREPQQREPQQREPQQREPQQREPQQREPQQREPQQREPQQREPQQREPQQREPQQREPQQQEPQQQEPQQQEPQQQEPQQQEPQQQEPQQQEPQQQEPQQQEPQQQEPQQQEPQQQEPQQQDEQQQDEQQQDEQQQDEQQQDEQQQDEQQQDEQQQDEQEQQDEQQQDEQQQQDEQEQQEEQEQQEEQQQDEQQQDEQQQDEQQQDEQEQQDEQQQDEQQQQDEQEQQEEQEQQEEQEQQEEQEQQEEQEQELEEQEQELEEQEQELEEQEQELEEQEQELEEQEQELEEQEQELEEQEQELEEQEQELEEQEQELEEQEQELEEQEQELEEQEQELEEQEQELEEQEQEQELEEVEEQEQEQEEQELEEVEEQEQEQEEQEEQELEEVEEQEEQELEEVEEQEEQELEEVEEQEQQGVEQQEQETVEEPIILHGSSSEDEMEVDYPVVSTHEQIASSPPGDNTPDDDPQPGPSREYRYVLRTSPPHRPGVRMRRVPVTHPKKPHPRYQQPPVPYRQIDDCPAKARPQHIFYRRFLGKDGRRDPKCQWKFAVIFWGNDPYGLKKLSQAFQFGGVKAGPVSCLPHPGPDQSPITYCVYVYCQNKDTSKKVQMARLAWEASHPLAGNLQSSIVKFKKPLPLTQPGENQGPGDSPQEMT
* hit, by the source's call; i = inactive; ? = inconclusive; / = no result given; & = joins results of further samples.

Results follow in this order: HNF4A DNA FP	Vif TR-FRET	A1 inh	B2AR ag	Ecoli growth	UCH37 inh	LANA-H2B inh
- COc1ccccc1Nc1nccc(N(C)C)c1C#N
→ 0.1	?	-1.1	-5.5	0.647	5.9	-6.9
- Cc1cc(C)n(-c2ncc3c(n2)N(CCO)CCOC3=O)n1
→ -0.7	/	2.3	-6.0	0.627	-1.4	-2.2
- CCN(CC)S(=O)(=O)c1cccc(C(=O)N[C@H](C(=O)NC2=NCCS2)C(C)C)c1
→ -2.9	-2.5%	0.1	-2.4	0.721	-1.5	0.7
- Nc1c2c(nc3ccn(-c4ccccc4)c(=O)c13)CCCCC2
→ 1.7	-4.9%	0.2	-13.4	0.728	-1.5	0.7
- CCOC(=O)CSc1nc2ccsc2c(=O)n1C1CCN(C(=O)OCC)CC1
→ -0.6	2.4%	0.8	-3.3	0.674	3.8	0.4
- CCOC(=O)N1CCN(C(=O)c2oc3ccc(S(=O)(=O)N4CCCCC4)cc3c2C)CC1
→ -2.3	-4.1%&-0.1%	0.3	4.6	0.749	0.2	0.4
- COc1ccc(-c2nn(-c3ccccc3)cc2CNCc2cccnc2)c(F)c1
→ -1.6	/	1.0	-8.2	0.701	-10.5	-7.5
- O=C(OCc1ccccc1)c1cc(S(=O)(=O)N2CCCCC2)ccc1N1CCOCC1
→ 2.7	4.0%	-1.3	-0.4	0.688	-3.0	-6.9
- COc1ccc(Cl)cc1NC(=O)CN(C)CC(=O)Nc1ccc(C)cc1Br
→ 1.4	-2.4%	0.0	-3.1	0.7	-0.7	-0.3
- CCc1ccc(-c2cc(C)no2)cc1S(=O)(=O)N1CCOc2ccc(C)cc21
→ -4.0	-8.3%	0.3	-9.6	0.698	0.7	6.3
- CC(C)(C)N(CC(=O)NC1CCCCC1)C(=O)CS(=O)CC(=O)Nc1ccc(F)cc1 (stereo not drawn)
→ -0.2	/	0.0	0.4	0.695	5.5	-0.7
- CCN1C(=O)[C@H]2[C@@H](c3ccc(-c4ccc(C(C)=O)cc4)cc3)N3CCC[C@@]3(C(=O)OC)[C@H]2C1=O
→ -0.4	/	-5.1	7.0	/	-0.3	0.3
- O=C(Cc1ccc(NC2=NC3CS(=O)(=O)CC3S2)cc1)N1CCN(c2ccc(F)cc2)CC1 (stereo not drawn)
→ -4.2	/	-0.5	4.3	0.725	4.9	-5.8
- CCc1nnc(NC(=O)CN2C(=O)N(C)C3(CCCCC3)C2=O)s1
→ -1.4	-11.1%	1.3	-2.0	0.673	1.7	5.0
- Cc1ccccc1/C=N\NC(=O)c1ccccc1-n1cccc1
→ 1.9	-3.8%	1.0	-1.4	/	/	-0.2
- CC(C)COC(=O)C1C(=O)CC(C)(O)C(C(=O)OCC(C)C)C1c1cccnc1 (stereo not drawn)
→ 0.2	-3.0%&-4.7%	0.1	-7.1	0.648	2.6	6.6&-21.7
- C=CCN1C(=O)c2ccc(C(=O)N(CCOC)c3c(N)n(CCCC)c(=O)[nH]c3=O)cc2C1=O
→ -4.0	-6.6%	0.0	-0.6	0.744	1.9	-1.5
- COC(=O)CC1COc2ccccc2N1S(=O)(=O)c1ccc(Br)cc1 (stereo not drawn)
→ -0.5	-7.5%	0.0	-9.3	0.644	1.1	-7.9
- O=C(O)CCCN1C(=O)c2ccc(C(=O)c3cccc([N+](=O)[O-])c3)cc2C1=O
→ -0.6	-9.6%	-0.1	-9.0	0.678	1.6	3.3
- OC(CNc1ccccc1)COc1ccc(OCC(O)CNc2ccccc2)cc1 (stereo not drawn)
→ 1.2	0.0%	0.3	11.6	0.738	3.0	1.9
- CSc1nc(-c2ccco2)nn1C(=O)c1ccccc1Cl
→ -1.3	2.3%	/	14.3	0.682	4.5	/
- CC(C)c1ccc(NC2CCCN(C(=O)CCCn3cncn3)C2)cc1 (stereo not drawn)
→ 1.1	2.8%	-0.5	-0.9	0.697	2.1	2.8
- Cc1ccc(CNC(=O)CN2CCN(Cc3ccc(Cl)cc3)C2=O)cc1
→ -2.3	-1.2%	-0.2	3.9	0.782	3.7	-2.4
- CCOc1ccc(NC(=O)COC(=O)CNC(=O)c2ccc(-c3ccccc3)cc2)cc1
→ -2.2	-5.8%	-0.7	3.9	0.676	0.7	8.5
- Cc1cc(C(=O)Cn2c(CO)nc3ccccc32)c(C)n1C
→ 0.0	9.4%	-0.4	-2.2	0.677	3.5	-0.7
- COc1c(O)c(=O)n2c3ccccc3c3ccnc1c32
→ -1.1	/	0.0	0.6	0.689	6.7	-8.2
- C=C[C@]1(C)C[C@H]1[C@H](NP(=O)(c1ccccc1)c1ccccc1)c1ccccc1
→ 0.6	6.8%	0.7	7.4	/	0.8	0.3
- CC(C)N1CCN(Cc2ccc(-c3ccccc3)cc2)CC1CCO (stereo not drawn)
→ 1.7	/	0.8	-3.2	0.7	2.7	-0.8
- COc1ccc(-n2nc3c(c2NC(=O)C2CC2)CS(=O)(=O)C3)cc1
→ 1.6	/	-0.4	1.1	0.715	2.0	-2.1
- CN(C)CCCNS(=O)(=O)c1cc(Cl)c(Cl)cc1Cl
→ -1.1	/	0.6	-4.6	0.669	1.8	1.7
- COC(=O)CCC(=O)N1CCOCCOCCOCC1
→ -0.1	3.2%	0.4	-1.4	0.677	0.3	-1.2
- CCOC(=O)c1sc2ncn(C(CC)C(=O)OCC)c(=O)c2c1C (stereo not drawn)
→ 1.6	0.6%	0.2	9.5	0.725	0.3	0.9
- c1ccc(-c2noc(-c3cccnc3)n2)cc1
→ 0.3	21.0%	-6.4	-4.4	0.677	1.1	0.6
- O=C(O)c1cc(-c2ccc3c(c2)OCCO3)n[nH]1
→ -1.4	2.8%	-0.2	-2.9	0.728	3.1	2.8
- CSC1=NCCN1C(=O)Cc1cccs1
→ -1.8	0.6%	-0.1	1.0	0.747	-1.9	-2.7
- COC(=O)c1ccc(NC(=O)c2ccc3c(c2)NC(=O)C2CCCN32)cc1 (stereo not drawn)
→ /	-4.2%	0.5	/	/	/	-5.1
- CN(C)S(=O)(=O)c1ccc2nnn(OCC(=O)NC3CCS(=O)(=O)C3)c2c1 (stereo not drawn)
→ 25.7	/	0.1	-0.4	0.668	-2.8	-23.1
- O=C(NC1=NCCS1)c1cc(-c2cccc(Br)c2)nc2ccccc12
→ -1.4	-14.2%	1.0	-4.9	0.674	3.0	-4.4
- CC(=O)Nc1c(C(=O)c2ccccc2)oc2ccccc12
→ 4.0	8.6%	?	-0.6	0.719	5.0	0.5
- CCNC(=O)CC1C(=O)N(c2ccc(F)cc2)C(=S)N1CCc1ccncc1 (stereo not drawn)
→ -0.9	2.9%	0.6	2.2	0.686	-0.4	1.9
- CC1CCN(C(=O)c2cc3c(ccc4ccccc43)o2)CC1
→ -0.1	-0.1%	-9.6	1.8	0.66	4.7	0.2
- CC(=O)Nc1ccc(/C=C/c2nc3ccccc3o2)cc1
→ -4.8	-3.2%	-2.0	-7.2	0.683	-139.2	2.9
- O=C(NNC(=O)C12CC3CC(CC(C3)C1)C2)c1cccc(O)c1
→ -2.2	/	-0.6	-1.9	0.681	1.8	0.4
- O=C(NNC(=O)C1CCN(Cc2ccc(Cl)c(Cl)c2)CC1)c1cccs1
→ 2.3	-2.8%	0.5	7.7	0.638	-0.8	2.3
- Cc1ccc(C(O)C(=O)c2ccco2)cc1 (stereo not drawn)
→ -2.2	/	0.0	-2.2	0.692	2.2	-2.4
- CCCc1cc(=O)n2[nH]c(C)c(-c3ccccc3)c2n1
→ -1.5	?	1.5	-0.2	0.761	-4.3	0.9
- NC(N)=N/N=C/c1ccccc1
→ -2.6	2.1%	-0.5	-13.5	/	/	0.2
- COCCN(C(=O)Cc1cccs1)C(C(=O)NCc1ccc(OC)cc1)c1ccc(C(C)C)cc1 (stereo not drawn)
→ -1.4	-0.3%	0.3	-6.3	0.664	2.8	-3.8
- O=C(c1ccccc1Oc1nnnn1-c1ccccc1)N1CCOCC1
→ -1.4	2.0%	0.6	7.8	0.647	0.8	-1.4
- COc1ccc(N2CCN(C(=O)CCS(=O)(=O)c3ccc4c(c3)NC(=O)C(C)S4)CC2)cc1 (stereo not drawn)
→ 0.4	/	0.2	-1.0	0.673	2.2	-2.8
- Cc1ccc(S(=O)(=O)N2CCCCC2)cc1NC(=O)C1CC(=O)N(Cc2ccccc2)C1 (stereo not drawn)
→ -0.3	/	-0.1	-0.8	0.717	1.0	2.9
- O=C(N/C(=C\c1ccc(O)cc1)C(=O)N1CCCCC1)c1ccccc1
→ -1.8	3.9%	-0.4	0.8	0.663	1.7	-1.3
- O=C1C2C3CCCC3=C3CCCC3C2C(=O)N1c1ccc(Cl)cc1 (stereo not drawn)
→ -1.4	/	0.1	-6.6	0.751	63.1*	0.2
- CN1C(=O)C2(OCC(COc3ccc(Cl)cc3)O2)c2ccccc21 (stereo not drawn)
→ -3.0	6.4%	0.0	-0.8	0.686	1.0	0.5
- O=C(OCc1ccc(Br)cc1)c1cccnc1Cl
→ -1.6	/	-1.0	3.8	0.653	2.6	3.0
- O=C(C1CCCCN1S(=O)(=O)c1ccc(F)cc1)N1CCN(c2ccccc2F)CC1 (stereo not drawn)
→ 1.1	-0.5%	2.1	9.6	0.791	1.2	1.2
- C[C@H](CO)N1C[C@H](C)[C@@H](CN(C)S(=O)(=O)c2cccs2)Oc2ccc(NC(=O)Nc3ccccc3)cc2C1=O
→ 0.6	-4.5%	0.7	14.4	0.704	5.1	-2.8
- Cc1ccc(NC(=O)c2cncc(Br)c2)c([N+](=O)[O-])c1
→ 0.4	-5.2%	-0.6	-9.8	0.708	3.7	-1.7
- O=C(Cn1nnc2ccccc21)N/N=C/c1ccco1
→ -2.6	3.0%	0.4	-8.5	/	/	2.2
- c1ccc(N2CCN(Cc3cnc(N4CCOCC4)s3)CC2)cc1
→ 4.7	1.6%	0.6	1.5	0.703	5.5	/

The list continues:
Results follow in this order: HNF4A DNA FP	Vif TR-FRET	A1 inh	B2AR ag	Ecoli growth	UCH37 inh	LANA-H2B inh
- COc1ccc(CNC(=O)C2CCC(CNS(=O)(=O)c3ccc(C)cc3)CC2)cc1 (stereo not drawn)
→ 3.4	6.7%	1.0	6.7	0.662	6.0	0.7
- COc1ccc(-c2cc(C(F)(F)F)c(C#N)c(=O)[nH]2)cc1
→ -0.9	-2.3%	-3.3	2.9	0.709	i	0.5
- C/C(=N/NC(=O)c1ccccn1)c1c[nH]c2ccccc12
→ 1.6	13.6%	-3.9	-6.3	/	/	-1.6
- CCOc1ccc(CNC(=S)N/N=C\c2ccc([N+](=O)[O-])cc2)cc1
→ 3.7	1.7%	0.0	-9.0	/	/	-0.1
- COc1ccc(S(=O)(=O)NCCc2nnc3ccc(SCC(=O)Nc4cc(C)on4)nn23)cc1
→ 1.3	-9.8%	-0.2	0.3	0.727	3.9	-2.9
- COc1cccc(C2CC(c3cccs3)=NN2C(=O)CCC(=O)O)c1OC (stereo not drawn)
→ 6.8	-2.3%	-2.8	2.9	0.679	-3.3	1.5
- O=C(COc1cc(F)ccc1[N+](=O)[O-])NCCN1C(=O)CSC1=O
→ 3.3	-4.1%	-0.6	3.3	0.649	2.1	-3.2
- O=C(Nc1ccc(C(=O)N2CCCC2)cc1)C1CCCC1
→ -1.0	-3.0%	/	-2.9	/	/	/
- C/C(CC(=O)Nc1cccc(F)c1)=N\NC(=O)C(=O)NC1CCCCC1
→ 0.5	6.2%	0.1	-18.4	/	/	15.3*
- COc1cnn(C(C)(C)C)c(=O)c1Cl
→ 0.0	24.6%	1.0	8.2	0.725	0.8	-1.4
